Compound activity as filed in PubChem.
RN4220 kill – kills Staphylococcus aureus RN4220; S. aureus RN4220 growth, OD600, 16 h; inhibition, % (concentration not given with the values); hit rate 0.33% among 330,000; AID 1259311;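 active means z-score of -3 or lower and OD600 up to 0.18 on both plates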;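 further: plate controls were untreated cells for no effect and reference antibiotic for full effect; stock transfer was 100 nL into about 80 µL; one replicate is shown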
Sa ugtP lethal – compounds lethal to S. aureus RN4220 ugtP deletion mutant. OD600 growth, 16 h; some inactives read as strong as hits. hit rate 0.54% among 330,000. growth inhibition, % (test concentration not listed). AID 1259309;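 active means z-score under -3 and OD600 up to 0.15 on both plates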;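 further: plate controls were untreated wells for no effect and antibiotic for full effect; wells of about 80 µL received 100 nL stock; the first replicate is given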
BJeLR viability – kills HRASV12-expressing BJeLR cells | BJeLR (HRASV12) viability, CellTiter-Glo ATP luminescence, 48 h; reference of the scale not given here | inhibition, % (no concentration beside the values) | hit rate 0.17% among 300,000;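 active means replicate mean above 50%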;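 further: 50 nL library stock added to about 25 µL; numbers are from one replicate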
Autofluor counter – flagged as autofluorescent in microsphere protease counterscreen | hit rate 3.1% among 360,000 | compound autofluorescence counterscreen, microsphere flow cytometry; hits give high values | AID 624483 | fluorescence intensity (concentration not given with the values);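 active means at least 3 SD above the mean of all compounds, about 16000 in these data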;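 further: 100 nL of 1 mM stock went into each well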
PrP 5UTR inh – suppresses PrP 5' UTR mRNA reporter expression; cell-based PrP 5' UTR mRNA reporter, plate reader; inhibition, % (concentration not given with the values); hit rate 0.35% among 340,000;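 active means every replicate at 50% or more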;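 further: 0 = median of the neutral control wells; tested in H4 reporter cells; numbers are from one replicate; inactives centre near -14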
Mtb hypoxia inh – inhibitors of hypoxia-regulated fluorescent reporter in Mycobacterium tuberculosis; fluorescence inhibition, % (test concentration not listed); hit rate 0.1% among 300,000; M. tuberculosis hypoxia-regulated fluorescent reporter, fluorescence;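 active means 35 to 45% if threefold the growth effect, above 45% if 1.5-fold the growth effect; inactive means the rest, general growth blockers included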;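 further: wells of about 50 µL received 100 nL stock; 0% = vehicle wells and 100% = reference inhibitor wells; whole bacteria with a GFP reporter of the hypoxia response; strong numbers were not always called active; many hits fall short of the cut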
Mtb hypoxia inh growth – further read-out of Mtb hypoxia inh, marked with its call; growth inhibition, %; measured here: M. tuberculosis growth (absorbance);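 0% = vehicle and 100% = reference antibiotic; read after six days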
Numbers without * were called inactive; x = no result given. No enrichment for hits (roughly 4% active in at least one column).

SMILES	RN4220 kill	Sa ugtP lethal	BJeLR viability	Autofluor counter	PrP 5UTR inh	Mtb hypoxia inh	Mtb hypoxia inh growth
C/C(=N\N=C1\NC(=O)CC(C(=O)O)S1)c1ccc(F)cc1 (stereo not drawn)	x	x	-6	1939	-13	x	x
CC(C)C(NC(=O)c1ccc(Cl)cc1)C(=O)NCC1CCCO1 (stereo not drawn)	2.6	4	-1	3724	-20	-1	9
CCOC(=S)SCC(=O)Nc1nc(-c2ccc(Br)cc2)cs1	-13	99*	-14	2526	-4	12	17
Cc1sc2c(c1C)C(=O)/C(=C\Nc1ccncc1)S(=O)(=O)N2C	3.4	12	10	3794	-18	12	6
CC(CN1CCN(C)CC1)OC(=O)c1ccccc1Cl (stereo not drawn)	0.9	8	-7	3084	-16	x	x
CS(=O)(=O)c1ccc(Sc2nc3ccccc3s2)c([N+](=O)[O-])c1	4.1	7	7	10258	-6	-1	4
CS(=O)(=O)N1CCN(C2CCN(Cc3ccccc3)CC2)CC1	1.9	1	26	4437	-5	x	x
CCCCN(C(=O)c1cc(Cl)nc2ccccc12)c1c(N)n(Cc2ccccc2)c(=O)[nH]c1=O	0.1	1	-1	5250	-3	-1	-3
Cc1ccc2nsnc2c1NC(=O)COc1ccccc1	4.7	10	-2	4048	-14	-8	-2
CCC(C)NC(=O)C(Cc1ccccc1)n1cccc1 (stereo not drawn)	-8.1	-5	0	7350	-14	9	10
C=CCn1cnc2scc(-c3ccc(C)cc3)c2c1=O	2.0	12	-5	4223	5	x	x
Cc1cc(OC(C)C(=O)NCc2ccccn2)c2c(C)cc(=O)oc2c1 (stereo not drawn)	1.4	6	4	5539	8	2	12
CCCC(=O)Nc1ccc(NC(=S)NC(=O)c2ccccc2[N+](=O)[O-])cc1	3.7	6	3	1937	-25	9	5
O=C(NC(=S)Nc1ccc(-c2ccccc2)cc1)c1ccccc1	-11	7	x	3669	-16	x	x
Cc1occc1-c1nnc(SCC(=O)N2CCCCC2C)o1 (stereo not drawn)	7.0	-1	x	4861	-22	3	5
COc1ccc(NC(=O)c2ccc(Cc3ccc(C)cc3)o2)cc1	2.0	15	-10	3307	-30	5	5
O=C1c2ccc3c4c(ccc(c24)C(=O)N1c1ccc2ccccc2c1)CC3	3.4	15	4	4041	1	4	-4
O=C1CCCC2=C1C(c1ccc(O)cc1)c1c(ccc3ccccc13)N2 (stereo not drawn)	9.2	-2	4	4646	-16	-2	10
Cc1cc(=O)oc2cc(OCC(=O)N/N=C/c3cc([N+](=O)[O-])ccc3O)ccc12	x	x	1	2366	5	x	x
CN1C(=O)N(C)C(=O)C2(Cc3cc([N+](=O)[O-])ccc3N(C)C2c2ccccc2)C1=O (stereo not drawn)	5.3	1	1	2761	-19	7	4
CC(Sc1nnc(-c2ccccc2F)n1N)C(=O)NCC1CCCO1 (stereo not drawn)	0.7	2	5	4136	-15	7	-2
Cc1ccc(C2=NC3(CCCCC3)N=C2SCC(=O)Nc2ccc3c(c2)OCCO3)cc1	-11	11	-7	6335	-10	x	x
CSc1ncccc1C(=O)Nc1cccc(S(=O)(=O)N2CCOCC2)c1	0.2	2	x	4315	-19	-4	6
O=C(c1ccncc1)N1CCN(S(=O)(=O)c2ccc(OC(F)(F)F)cc2)CC1	5.4	3	x	6251	1	-1	0
O=C(CN1CCCCC1)Nc1cc(Cl)ccc1Cl	4.8	6	-8	6902	-6	8	8
(next part)
SMILES	RN4220 kill	Sa ugtP lethal	BJeLR viability	Autofluor counter	PrP 5UTR inh	Mtb hypoxia inh	Mtb hypoxia inh growth
CC1C/C(=N/Nc2ccc([N+](=O)[O-])cc2[N+](=O)[O-])CC(C)(C)C1 (stereo not drawn)	x	x	-1	4213	-8	x	x
COc1ccc(CC(=O)NCc2ccco2)cc1OC	2.9	5	-1	6912	-24	9	0
Cc1ccc(NC(=O)c2sc(=S)n(-c3cc(C)ccc3F)c2N)cc1	2.4	1	5	4534	-20	1	3
O=C(Cn1nc(-c2nn(CC(=O)c3ccccc3)c3[n+]2CCCCC3)[n+]2c1CCCCC2)c1ccccc1	1.6	6	-2	4745	x	14	6
Cc1cc(C=C2C(=O)N(C)C(=S)N2C)ccc1N1CCCC1	20	-11	x	x	x	0	-13
CC(C)(C)C(=O)ON=C(N)COc1cccc(Cl)c1	-0.8	-5	x	x	x	-10	4
COc1ccccc1NC(=O)CN1C(=O)C2(OCCCO2)c2ccccc21	6.8	-4	2	20250*	-12	11	4
O=C(NCCCN1CCOCC1)C(=O)NCc1ccco1	6.1	2	-2	2059	-2	-2	10
O=C(NN=Cc1cccs1)c1sccc1-n1cccc1	7.9	6	x	x	x	11	8
Cc1cccc(-c2cnn(-c3ccccc3)c2N)c1	6.9	-2	-6	3377	-69	-4	11
Cc1cc([N+](=O)[O-])nn1CC(=O)NCc1nc2ccccc2[nH]1	2.7	-4	2	4642	-57	12	2
CC1Cc2ccccc2N1C(=O)CCNS(=O)(=O)c1cccc2nsnc12 (stereo not drawn)	2.8	2	x	2869	6	x	x
C[N+](C)(C)CC(=O)N1CCN(c2ccc3ccccc3n2)CC1	4.0	11	-3	3842	-18	-7	5
COc1ccc(NCC(O)COc2ccc(C(C)(C)C)cc2)cc1 (stereo not drawn)	13	8	-3	4474	-24	2	1
COC(=O)C1=C(c2ccc(F)cc2F)CC2CCC1N2C(=O)NC1Cc2ccccc2C1 (stereo not drawn)	2.5	3	x	x	x	10	8
COc1ccc(CN2[C@@H](CC(=O)O)c3cc(F)ccc3S2(=O)=O)cc1	x	x	8	4349	-17	x	x
COC(=O)[C@H](Cc1c[nH]c2ccccc12)NC(=O)Cc1c[nH]c2ccccc12	-1.0	1	0	3501	-18	-5	-5
O=C(Cc1c(F)cccc1Cl)NCCCn1ccnc1	1.7	8	-2	7345	-4	12	3
Cc1cc(O)c2c3c(c(=O)oc2c1)CCC(C)C3 (stereo not drawn)	-12	-2	-2	x	-33	14	8
COCCNC(=O)c1c[nH]c2ccc(S(=O)(=O)N3CCOCC3)cc2c1=O	-0.2	2	-12	5515	-19	3	11
CC(=NNC(=O)c1ccc(NS(=O)(=O)c2cccs2)cc1)c1ccncc1	6.8	4	x	x	x	10	3
Cc1ccc(CN2CCN(/N=C/c3ccc(C(F)(F)F)cc3)CC2)c(C)c1	x	x	6	2498	-24	x	x
CC1CCCCN1C(=O)CSc1nc2ccccc2n1CC(=O)N1CCc2ccccc21 (stereo not drawn)	-4.3	-9	-6	11168	-4	-12	3
CCOc1cc2[nH]c(=O)n(CCCCC(=O)NCc3ccco3)c(=O)c2cc1OCC	4.9	11	-4	7378	-10	9	7
COc1ccc(C(=O)C2CCCN(C(=O)c3csc(C(C)=O)c3)C2)c(C)c1 (stereo not drawn)	2.8	6	0	5675	3	9	3
Going on with the list:
SMILES	RN4220 kill	Sa ugtP lethal	BJeLR viability	Autofluor counter	PrP 5UTR inh	Mtb hypoxia inh	Mtb hypoxia inh growth
O=[N+]([O-])c1ccc(NN=Cc2ccccc2)c(F)c1	-1.9	6	x	x	x	12	9
Nc1nonc1-n1nnc(C(=O)NN=Cc2ccc(OCc3ccccc3)cc2)c1CNc1ccccc1	6.2	5	x	x	x	8	-1
Cc1nc(NC(=O)C(Cl)Cl)sc1C(=O)N(C)C	5.4	2	6	2450	12	5	2
Cc1cc2ncn(CS(C)(=O)=O)c2cc1C	0.6	4	-2	4330	-31	0	4
COc1ccc(-c2noc(CCC(=O)Nc3cccc(C)c3)n2)cc1	-4.4	3	0	5251	-29	x	x
Cc1ccc(-c2noc(CCC(=O)NCCc3ccccc3Cl)n2)cc1	-2.6	-3	x	2526	-30	x	x
C/C(=N/NS(=O)(=O)c1ccc(Cl)cc1)c1cccc(NC(=O)c2ccc(Cl)cc2Cl)c1	x	x	4	5001	-13	x	x
O=C(CCl)N(CCCNC(=O)C(F)(F)F)c1ccc([N+](=O)[O-])cc1	3.3	9	116*	3706	5	x	x
COc1cc(NC(=O)CSc2nc(C)c(C)c(C)n2)c(C)cc1[N+](=O)[O-]	3.4	-1	4	10134	-19	7	7
O=C(NNC(=S)Nc1cccc(C(F)(F)F)c1)c1ccccc1Cl	17	-10	11	11499	4	-9	5
COc1ccc(C(CNC(=O)c2cc3c(s2)CCC(C)C3)N2CCOCC2)cc1 (stereo not drawn)	2.0	-3	x	5455	-17	-1	-1
CSc1nn2cc(CCN3CCOCC3)c(-c3ccc(F)cc3)nc2c1C#N	4.8	3	22	4370	-12	10	-1
Cc1cccc(NC(=O)C(CC(C)C)NC(=O)C2CCC(C)CC2)n1 (stereo not drawn)	0.4	-9	-4	6505	-13	-1	-3
CN(C)CCn1cnc2c1c(=O)[nH]c(=O)n2Cc1ccccc1	2.6	9	-4	3688	-7	6	12
CC(C)C[C@H](NC(=O)N1c2ccccc2NC(=O)[C@@H]1C(C)C)C(=O)N1CCC[C@@H]1C(=O)O	3.4	10	-4	5011	-51	x	x
COC(=O)c1cc(NC(=O)c2ccccc2)c(=O)oc1C/C=N\OCc1ccc(Cl)cc1Cl	x	x	3	6352	-19	x	x
CCCCn1c(N)c(N(CC(C)C)C(=O)CN2C(=O)c3ccccc3C2=O)c(=O)[nH]c1=O	3.8	3	0	5071	-16	3	5
Cn1cccc1C(=O)c1ccc(Cl)cc1Cl	6.8	-9	-3	5327	-25	6	14
COC(=O)c1ccccc1NC(=O)c1ccc(COc2cccc3ccccc23)o1	-0.5	-6	2	10232	-17	-8	-1
COc1ccc(C=Cc2nc(C)c(-c3ccccc3)c(=O)[nH]2)cc1OC	-0.2	2	x	x	x	1	11
O=C(CSc1nnc(-c2ccc3c(c2)OCO3)n1-c1ccccc1)c1ccc(Cl)cc1	7.5	-4	-11	2294	-14	8	14
FC(F)(F)c1ccc(CN2CCN(Cc3ccco3)CC2)cc1	2.8	3	3	3732	-10	-1	-5
CS(=O)(=O)c1ccc(C(=O)OC2CCOC2=O)cc1[N+](=O)[O-] (stereo not drawn)	2.6	7	-4	6199	-13	2	-9
CCN1C(=O)/C(=C\c2cn(-c3ccccc3)nc2-c2cccnc2)SC1=S	-7.9	8	5	3990	-18	11	7
O=S(=O)(Nc1cccc(Cl)c1)c1ccc(-n2cccn2)cc1	12	-23	1	4329	-2	-2	5
More compounds:
SMILES	RN4220 kill	Sa ugtP lethal	BJeLR viability	Autofluor counter	PrP 5UTR inh	Mtb hypoxia inh	Mtb hypoxia inh growth
O=C(Nc1ccccc1C(=O)N1CCCC1)c1cccc(S(=O)(=O)N2CCCCC2)c1	-11	6	7	3261	-6	12	1
CCOC(=O)C1CCN(S(=O)(=O)c2ccc(C(C)=O)cc2)CC1	0.5	-1	-13	4392	-16	-1	5
Cc1ccc(NC(=O)CCl)cc1S(=O)(=O)N1CCCCCC1	8.9	0	0	4312	-2	9	27
O=C(CSc1ccc(-c2ccc(F)cc2)nn1)N1CCCc2ccccc21	x	x	8	10984	41	x	x
COc1ccc(NC(=S)NC(=O)c2cncc(Br)c2)cc1	0.5	19	3	3702	-29	6	4
COc1ccc2c(c1OC)C(=O)N1N=C(c3ccc(O)cc3)CC21 (stereo not drawn)	27	18	4	2934	-1	15	-24
COc1ccc(C(=O)C2CCCN(C(=O)c3cc(C)on3)C2)cc1F (stereo not drawn)	-1.3	-3	-3	4189	-13	9	8
COc1cccc(/C=N/NC(=O)CNC(=O)c2ccco2)c1O	x	x	-3	4539	-29	x	x
CCc1ccc(CN2CCC(n3nccc3NC(=O)c3ccccc3Cl)CC2)cc1	-3.0	4	6	5930	-10	12	13

Filtered by structure, the compounds so far with a furan ring, fused or not (eight)
SMILES	RN4220 kill	Sa ugtP lethal	BJeLR viability	Autofluor counter	PrP 5UTR inh	Mtb hypoxia inh	Mtb hypoxia inh growth
Cc1occc1-c1nnc(SCC(=O)N2CCCCC2C)o1 (stereo not drawn)	7.0	-1	x	4861	-22	3	5
COc1ccc(NC(=O)c2ccc(Cc3ccc(C)cc3)o2)cc1	2.0	15	-10	3307	-30	5	5
COc1ccc(CC(=O)NCc2ccco2)cc1OC	2.9	5	-1	6912	-24	9	0
O=C(NCCCN1CCOCC1)C(=O)NCc1ccco1	6.1	2	-2	2059	-2	-2	10
CCOc1cc2[nH]c(=O)n(CCCCC(=O)NCc3ccco3)c(=O)c2cc1OCC	4.9	11	-4	7378	-10	9	7
COC(=O)c1ccccc1NC(=O)c1ccc(COc2cccc3ccccc23)o1	-0.5	-6	2	10232	-17	-8	-1
FC(F)(F)c1ccc(CN2CCN(Cc3ccco3)CC2)cc1	2.8	3	3	3732	-10	-1	-5
COc1cccc(/C=N/NC(=O)CNC(=O)c2ccco2)c1O	x	x	-3	4539	-29	x	x
